FGF22 binding = shifts melting point of recombinant human FGF22; Q9HCT0; recombinant FGF22 thermal shift, SYPRO orange fluorescence; percent of sucrose octasulfate shift, DMSO zero; calls only at 9.99 µM; 1.5% of 340,000 active;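 active means melting point raised past a set limit in the mean and every replicate; three in four hits are not shown here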
Target sequence (Q9HCT0 whole entry, looked up): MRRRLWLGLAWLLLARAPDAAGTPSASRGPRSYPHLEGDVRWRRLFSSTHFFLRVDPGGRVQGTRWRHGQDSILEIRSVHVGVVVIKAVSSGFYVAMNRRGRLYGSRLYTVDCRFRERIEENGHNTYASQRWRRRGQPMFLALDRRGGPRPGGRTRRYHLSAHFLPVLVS
HNF4A DNA FP = change in binding of human HNF4 alpha to DNA | P41235 | HNF4a-FITC DNA binding, fluorescence polarization, 1 h | activity change, % at 10 µM | 0.3% of 360,000 active; in the data active means activity change above about 30%, passing the limit was not always enough;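 further: controls were the assay level and a saturating level of protein; the project sought stronger binding though the title names inhibitors; some compounds called inactive have numbers as strong as hits; positive values seem to mean higher polarization but the record does not say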
Ecoli rRNA inh = inhibitors of bacterial rRNA selective over humanized ribosomes. E. coli WT GFP vs humanized-ribosome RFP mutants, fluorescence, 24 h; hits give low values; DMSO median 0, no signal -100. GFP signal change (wild-type ribosome), % (concentration not given with the values). 1.6% of 350,000 active. AID 720706;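 active means significant combined selectivity score with lowered wild-type GFP, culture density cut under 30%, mutant RFP and density less affected; inactive means any of these conditions unmet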; further: one replicate is shown; some compounds called inactive have numbers as strong as hits
UCH37 inh = human UCH37 deubiquitinating enzyme inhibition; Q9Y5K5; purified proteasome/UCH37, Ub-AMC cleavage fluorescence; inhibition, % (concentration not given with the values); 0.33% of 330,000 active; AID 588478;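 active means mean of two replicates above 20%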;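 further: 0% = compound-free wells with enzyme and 100% = wells lacking proteasome; stock transfer was 100 nL into about 20 µL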
Target sequence (Q9Y5K5 whole entry, looked up): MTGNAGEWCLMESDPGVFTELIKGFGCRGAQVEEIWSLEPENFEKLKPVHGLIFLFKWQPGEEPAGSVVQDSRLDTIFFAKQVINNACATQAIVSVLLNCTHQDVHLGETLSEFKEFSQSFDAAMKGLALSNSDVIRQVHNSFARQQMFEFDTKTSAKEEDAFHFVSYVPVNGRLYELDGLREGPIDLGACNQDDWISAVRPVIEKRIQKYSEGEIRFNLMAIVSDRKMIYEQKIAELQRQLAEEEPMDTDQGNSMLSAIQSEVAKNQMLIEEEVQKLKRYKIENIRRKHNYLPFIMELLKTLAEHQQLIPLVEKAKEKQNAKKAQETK
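Material: human UCH37 enzyme supplied as purified proteasome complex. Measure: % inhibition of Ub-AMC cleavage fluorescence. Medium: pH 7.4 Tris-HCl (50 mM) with ovalbumin, ATP-MgCl2, DTT. Times: 30 min preincubation with enzyme, 25 min cleavage at room temperature. Detection: AMC fluorescence intensity at 355/460 nm.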
ALR inh = inhibitors of human sulfhydryl oxidase ALR; purified ALR, DTT oxidation, H2O2 HRP-luminol luminescence; inhibition, % (concentration not given with the values); AID 485317; 3.8% of 290,000 active;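 active means mean and each replicate at 75% or more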;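 further: stock transfer was 7.5 nL into about 7.5 µL; 0% = neutral wells and 100% = wells with inactivated enzyme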
Beta2AR agonist = activates human beta-2 adrenergic receptor causing internalization | 0.43% of 340,000 active | Am2.2-beta2AR cells, FAP receptor internalization, flow cytometry; reference of the scale not given here | response, % (no concentration beside the values) | P07550 | AID 504454;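 active means response above a set limit, near 3 SD of response in nonfluorescent compounds, cut at about 42% in these data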;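 further: stock transfer was 100 nL into about 11 µL; a reference agonist was the positive control; negative values mostly stem from fluorescent compounds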
Target sequence (P07550 whole entry, looked up): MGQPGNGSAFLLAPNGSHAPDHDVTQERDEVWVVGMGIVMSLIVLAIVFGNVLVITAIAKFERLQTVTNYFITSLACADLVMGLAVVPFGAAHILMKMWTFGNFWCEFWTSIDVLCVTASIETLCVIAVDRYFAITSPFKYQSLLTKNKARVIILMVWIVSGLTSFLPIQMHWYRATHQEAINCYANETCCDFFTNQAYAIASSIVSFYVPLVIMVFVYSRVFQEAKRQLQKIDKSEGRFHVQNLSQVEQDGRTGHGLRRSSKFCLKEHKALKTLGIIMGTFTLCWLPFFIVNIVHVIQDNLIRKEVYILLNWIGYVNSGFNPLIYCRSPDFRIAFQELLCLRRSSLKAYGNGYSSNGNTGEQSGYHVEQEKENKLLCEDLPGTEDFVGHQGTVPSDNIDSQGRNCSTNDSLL
E coli growth = blocks Escherichia coli growth | OD600, 23 h; hits give low values | OD600 absorbance (test concentration not listed) | 0.21% of 330,000 active | AID 1053175;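 active means OD600 absorbance below the run mean of sample wells minus 3.6 SD, in any replicate, cut at about 0.56 in these data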;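 further: stock transfer was 300 nL into about 60 µL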
Ecoli rRNA inh OD600 = further read-out of Ecoli rRNA inh, marked with its call; OD600 change, %; measured here: OD600 growth;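 optical density of the mix in the first replicate; 0 = DMSO median and -100 = no signal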
Ecoli rRNA inh RFP = also measured in Ecoli rRNA inh; calls as there; RFP signal change, %; measured here: RFP humanized mutant strains;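 first replicate; 0 = DMSO median and -100 = no signal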
* = called active by the depositor; i = inactive; . = no result given; + = active, no number. Only part of the results is shown, so the mix of outcomes need not match the whole.

Under each structure – UCH37 inh	FGF22 binding	Ecoli rRNA inh OD600	E coli growth	ALR inh	HNF4A DNA FP	Ecoli rRNA inh	Ecoli rRNA inh RFP	Beta2AR agonist
C=C1CCN([C@H](C(=O)NCc2ccco2)C(C)C)S(=O)(=O)c2ccccc21
    2.1	i	7	.	-2	0.3	10	0.8	1
N#Cc1ccccc1NC(=O)CN1C(=O)NC2(CCCC2)C1=O
    1.4	i	8	0.71	-11	-0.1	6	2.3	-9
O=C(N/N=C/c1ccc(N2CCOCC2)o1)c1ccccc1[N+](=O)[O-]
    .	.	.	.	22	0.1	.	.	5
Cc1ccc(OCc2ccc(C(=O)O)o2)cc1C
    1.5	i	2	0.64	0	-2.3	11	-1.0	-8
Cc1ccc(N(C(=O)c2csnn2)C(C(=O)NC2CCCCC2)c2ccncc2)c(C)c1 (stereo not drawn)
    3.6	i	10	0.71	-13	3.3	6	0.1	14
Cc1ccc(C(=O)c2c[nH]c3c(F)cc(F)cc3c2=O)cc1
    .	.	.	.	2	-0.2	.	.	-5
CCn1cc(C(=O)N2CCN(c3ccccn3)CC2)c(=O)c2cc(S(=O)(=O)N3CCC(C)CC3)ccc21
    -0.6	i	-10	0.61	0	1.0	-13	-0.3	-7
COCCCNC(=O)C[C@@H]1C[C@@]2(C(=O)OC)CCCCC=C2N(CCc2ccc(OC)c(OC)c2)C1=O
    .	i	10	.	.	5.4	5	-2.1	.
Cc1ccc(OCc2nnc(SCC(=O)N3CCc4ccccc43)n2C)cc1
    -2.0	.	.	0.77	-4	-0.1	.	.	-4
CC(C)=CCC/C(C)=C/CNC(=O)C[C@H]1C[C@H](C(=O)N(C(C)C)C(C)C)[C@@]2(C)c3[nH]c4cc(CCC(=O)N(C)C)ccc4c3CCN2C1=O
    5.2	i	3	0.7	.	3.5	1	5.4	-2

(cont.)
Under each structure – UCH37 inh	FGF22 binding	Ecoli rRNA inh OD600	E coli growth	ALR inh	HNF4A DNA FP	Ecoli rRNA inh	Ecoli rRNA inh RFP	Beta2AR agonist
Cc1cccc(OCC(=O)NCCNC(=O)c2ccncc2)c1
    4.1	i	8	0.69	-2	3.4	5	-2.3	-4
CCOc1cc(C2C(C(=O)c3ccco3)=C(O)C(=O)N2Cc2ccccc2)ccc1O (stereo not drawn)
    11	i	-15	0.71	22	-0.4	-6	-2.4	1
COc1ccc(OCCCC(=O)OCC(=O)Nc2sccc2C(N)=O)cc1
    2.9	i	6	0.66	.	-1.3	3	5.8	8
O=C(N/C=C/c1ccco1)Nc1cccc(Cl)c1
    -2.8	i	9	0.62	43	0.0	16	6.3	7
CCCCCCn1nc(C(=O)OCC(=O)c2c(N)n(C)c(=O)n(C)c2=O)c2ccccc2c1=O
    1.2	.	.	0.72	5	-1.3	.	.	7
Cc1nn(Cc2noc(C(=O)NCc3ccccn3)n2)c(C)c1Br
    4.7	i	11	0.66	-1	0.5	6	-0.4	0
S=C(NCCCc1ccccc1)NCc1ccccc1
    0.9	i	-22	0.61	-3	-1.3	3	-2.6	-3
CC(C)=CCC[C@H](C)C[C@@H]1CC2=C(C(=O)OC(C)(C)O2)[C@H](c2ccc(Cl)cc2)O1
    .	i	2	.	.	4.7	-4	-1.6	.
CC(O)c1cccc(NC(=O)C2CCCCC2)c1 (stereo not drawn)
    0.0	.	5	0.63	.	-0.8	11	1.2	2
CN(C(=O)c1ccccc1)c1nc2ccccc2s1
    2.9	.	.	0.69	0	-0.4	.	.	-5

Two compounds from above, reduced to HNF4A DNA FP:
compound,HNF4A DNA FP
CC(O)c1cccc(NC(=O)C2CCCCC2)c1 (stereo not drawn),-0.8
CN(C(=O)c1ccccc1)c1nc2ccccc2s1,-0.4

Remaining list, next part.
Under each structure – UCH37 inh	FGF22 binding	Ecoli rRNA inh OD600	E coli growth	ALR inh	HNF4A DNA FP	Ecoli rRNA inh	Ecoli rRNA inh RFP	Beta2AR agonist
CC1CCN(S(=O)(=O)c2ccc3c(c2)N(CC(=O)NCCCN2CCCCC2C)C(=O)CS3)CC1 (stereo not drawn)
    -1.1	i	1	0.68	-3	-2.2	1	4.2	-3
CCOC(=O)C1C(c2ccccc2)N(C)OC1(O)C(F)(F)F (stereo not drawn)
    -0.3	i	7	0.67	1	0.6	-3	0.1	-2
CCOC(=O)c1nc(C)sc1-c1ccnn1S(=O)(=O)c1ccccc1C(F)(F)F
    .	i	.	.	-5	1.7	.	.	1
CCCCC[C@@H](C)N1C[C@H](COCc2ccccc2)Oc2cc(N3CC[C@@H](O)C3)ccc2S1(=O)=O
    .	i	-3	.	.	-0.6	-2	-3.7	.
COc1cccc(NC(=S)NNC(=O)c2ccccc2OC(F)F)c1
    4.6	.	.	0.66	79*	2.6	.	.	-4
COC(=O)CCCC1=CC2=C(c3ccccc3)C(=O)C(C)(OC(=O)C3CCCC3)C(=O)C2=CN1CCc1c[nH]c2ccccc12 (stereo not drawn)
    0.4	i	10	0.71	-7	15	5	-1.3	-3
Cc1cccc(-n2cnc(C(=O)NNC(=S)Nc3ccccc3)c2)n1
    3.7	i	-78	0.61	48	0.0	-53	-26	3
COc1ccc(C2C(C#N)=C(N)Oc3cc(C)[nH]c(=O)c32)cc1OC (stereo not drawn)
    0.1	i	17	0.71	-1	-2.8	14	3.9	-5
S=c1[nH]nc(-c2cc(-c3ccccc3)n[nH]2)n1/N=C/c1ccc(Cl)cc1
    .	i	-16	.	.	-3.0	-4	-3.0	-4
O=C(NCCCn1ccnc1)/C(=C/c1ccco1)NC(=O)c1cccs1
    3.6	+	15	0.67	-2	-6.0	15	0.9	-20

(continued)
Under each structure – UCH37 inh	FGF22 binding	Ecoli rRNA inh OD600	E coli growth	ALR inh	HNF4A DNA FP	Ecoli rRNA inh	Ecoli rRNA inh RFP	Beta2AR agonist
Cc1nc(C(F)(F)F)ccc1C(=O)Nc1ccccc1F
    3.5	i	5	0.67	-2	1.5	-2	-2.8	1
COc1ccccc1C(=O)NC(=O)COC(=O)c1nc2nc(C)cc(C)n2n1
    1.2	i	1	0.68	.	1.2	3	-1.6	-3
CC(=O)C1C(C)CC2C3CCC4CC(=O)CCC4(C)C3CCC21C (stereo not drawn)
    5.4	i	9	0.71	.	4.0	5	-0.3	1
CC(=O)N1CCN(c2ccc(NC(=O)c3ccc(Cl)c([N+](=O)[O-])c3)cc2)CC1
    2.3	i	1	0.67	-8	1.1	14	-3.9	8
CCn1cnc2cc(NCc3nc4ccccc4n3Cc3ccccc3)ccc21
    -3.8	.	.	0.73	-3	2.2	.	.	-4
O=S1(=O)N[C@@H](Cc2ccccc2)COc2cc(N3CCC[C@@H]3CO)ccc21
    .	i	-21	.	.	6.8	-26	-1.1	.
CCC(C)(C)NC(=O)C(c1ccc(OC)cc1)N(C(=O)CCC(=O)Nc1cc(C)on1)c1cccc(F)c1 (stereo not drawn)
    2.6	.	6	0.65	.	-6.1	3	1.6	1
COc1cccc(CNC(=O)COC(=O)c2ccc(C(=O)c3ccccc3)cc2)c1
    0.5	i	-20	0.7	.	-0.2	-20	0.8	-3
CCOC(=O)c1cc(-c2ccccc2)n(CC(=O)Nc2ccc(OC)cc2)c1C
    1.9	.	.	0.69	-7	1.3	.	.	-4
Cc1ccc(OCC(=O)NN2C(=O)c3ccccc3C2=O)cc1
    3.4	i	13	0.77	1	-0.6	5	1.4	2

New compounds follow:
Under each structure – UCH37 inh	FGF22 binding	Ecoli rRNA inh OD600	E coli growth	ALR inh	HNF4A DNA FP	Ecoli rRNA inh	Ecoli rRNA inh RFP	Beta2AR agonist
Cc1ccc(-c2nc3c(c(=O)[nH]c(=O)n3Cc3ccccc3)n2Cc2ccccc2)o1
    -61	i	3	0.74	.	2.4	-1	4.8	-4
CCOC(=O)Cn1c(=N)n(CCOc2cccc(C)c2)c2ccccc21
    2.0	.	.	0.69	9	-2.7	.	.	7
CCOC(=O)c1sc(C)c(C(=O)NCCCN2CCOCC2)c1N
    -14	.	.	0.72	-15	-0.7	.	.	4
CC(C)C1C(c2ccccc2)NC(c2ccccc2)CC1(O)c1ccc(F)cc1 (stereo not drawn)
    4.6	i	-69	0.65	.	1.8	-34	5.0	0
O=C(c1cn(-c2ccccc2)nc1-c1ccncc1)N1CCCCC1
    0.5	.	.	0.69	-6	0.5	.	.	-3
CC(C)(C)c1ccc(C(=O)Nc2ccc(O)c3c(=O)cc(-c4ccccc4Cl)oc23)cc1
    4.2	.	.	0.68	-1	-6.2	.	.	5
CCOc1ccc(NC(=O)C(=O)NCC2CCCN2CC)cc1 (stereo not drawn)
    1.2	.	.	0.61	.	1.7	.	.	3
COc1ccc(O)c(C(=O)c2cnc3c(c2)c(C)nn3CCO)c1
    2.2	i	2	0.66	-2	3.0	6	-1.5	8
CCOc1ccc(-c2nnc(N)o2)cc1
    1.2	.	.	0.7	7	0.2	.	.	-2
CC1Cc2ccccc2N1C(=O)CSc1nc(-c2ccccc2)cs1 (stereo not drawn)
    1.6	i	-21	0.69	-9	11	-16	1.0	13

Further structures follow.
Under each structure – UCH37 inh	FGF22 binding	Ecoli rRNA inh OD600	E coli growth	ALR inh	HNF4A DNA FP	Ecoli rRNA inh	Ecoli rRNA inh RFP	Beta2AR agonist
CC(=O)N(c1nnc(-c2ccc(C)cc2)s1)C1CCCC1
    3.9	i	-4	0.68	1	2.8	-9	0.7	-10
CCC(=O)N1CCCC1(C)C(=O)Nc1ccc2scnc2c1 (stereo not drawn)
    .	i	18	.	.	0.4	12	3.3	.
CCn1c(=O)oc2cc(NC(=O)CCl)ccc21
    0.9	i	9	0.64	-2	-4.7	15	-3.3	.
CCOC(=O)c1c(NC(=O)C2CC=CCC2C(=O)O)sc(C)c1CC (stereo not drawn)
    0.3	i	-9	0.71	2	-1.6	-14	-3.3	-4
CC12Cc3ccc4ccccc4c3C=C1C[N+](C)(C)C2 (stereo not drawn)
    -1.7	.	.	0.64	-12	-2.4	.	.	1
CCn1c(SCC(N)=O)nnc1-c1cc2c(C)nn(-c3ccccc3)c2s1
    2.9	.	.	0.66	.	3.9	.	.	1
O=c1oc2ccccc2c(NC(c2ccccc2)c2ccccc2)c1[N+](=O)[O-]
    2.0	.	.	0.7	-5	-1.9	.	.	2
O=C(Nc1ccc2c(c1)OCCO2)c1coc2ccccc2c1=O
    -45	.	.	0.69	-12	-0.6	.	.	-6
CN(c1ccccc1)S(=O)(=O)c1cccc(NS(=O)(=O)c2ccc(/C=C/C(=O)O)cc2)c1
    3.8	i	2	0.72	-3	-1.0	9	3.3	-10
O=C(CSc1nnc(Nc2ccccc2)s1)NCc1ccco1
    1.9	.	9	0.71	-7	1.9	-1	-3.6	-7

Next section
Under each structure – UCH37 inh	FGF22 binding	Ecoli rRNA inh OD600	E coli growth	ALR inh	HNF4A DNA FP	Ecoli rRNA inh	Ecoli rRNA inh RFP	Beta2AR agonist
Cc1nc(CN2CCC(c3ccccc3)CC2)cc(=O)[nH]1
    4.1	i	15	0.68	-17	-2.8	10	0.8	-2
Cc1ccc(C(c2nnnn2C(C)(C)C)N2CCC(C)CC2)cc1 (stereo not drawn)
    5.7	.	.	0.68	0	3.8	.	.	2
O=C(Nc1ccccc1)N1CCCC(c2nc(-c3cccs3)no2)C1 (stereo not drawn)
    3.6	i	-47	0.72	-2	0.9	-35	-5.4	1
O=C(c1ccccc1)c1ccc(N2CCOCC2)cc1
    .	i	5	.	.	-1.4	3	2.4	3
Cc1ccc(OCC(O)CN2CCOCC2)cc1C (stereo not drawn)
    2.9	i	3	0.68	-2	-2.1	7	-0.4	-5
CCN(Cc1nc(-c2cccc(C)c2)no1)C(=O)c1ccc2c(c1)OCO2
    -0.1	i	-38	0.65	2	0.7	-8	-3.9	-7
CCn1c2ccccc2c2cc(NC(=O)c3cccc(OC)c3)ccc21
    0.9	i	-4	0.74	1	1.2	-3	1.6	11
Cc1ccc(NC(=Nc2ccc(Br)cc2)N2CCOCC2)cc1C
    6.1	i	-16	0.68	-1	3.1	-8	5.1	8
